Source: PubChem BioAssay (several laboratories)
B2AR ag – agonists of human beta-2 adrenergic receptor inducing internalization; Am2.2-beta2AR cells, FAP receptor internalization, flow cytometry; reference of the scale not given here; response, % (test concentration not listed); 0.43% of 340,000 active; AID 504454;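 active = response above a set limit, near 3 SD of response in nonfluorescent compounds, cut at about 42% in these data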;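 note: stock transfer was 100 nL into about 11 µL; a reference agonist was the positive control; negative values mostly stem from fluorescent compounds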
Target sequence (P07550 whole entry, looked up): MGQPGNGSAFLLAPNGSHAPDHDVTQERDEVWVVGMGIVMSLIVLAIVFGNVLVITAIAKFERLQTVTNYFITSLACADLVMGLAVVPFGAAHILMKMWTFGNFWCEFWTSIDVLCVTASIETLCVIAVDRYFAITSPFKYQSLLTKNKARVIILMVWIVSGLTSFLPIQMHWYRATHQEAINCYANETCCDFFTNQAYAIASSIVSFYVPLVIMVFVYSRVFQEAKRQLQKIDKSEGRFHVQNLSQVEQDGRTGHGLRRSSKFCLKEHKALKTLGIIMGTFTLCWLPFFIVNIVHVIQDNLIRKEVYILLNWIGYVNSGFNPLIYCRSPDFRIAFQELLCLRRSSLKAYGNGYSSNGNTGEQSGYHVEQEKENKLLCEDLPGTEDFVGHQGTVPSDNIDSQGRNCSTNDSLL
HNF4A DNA FP – change in binding of human HNF4 alpha to DNA; P41235; HNF4a-FITC DNA binding, fluorescence polarization, 1 h; activity change, % at 10 µM; 0.3% of 360,000 active; in the data active = activity change above about 30%, passing the limit was not always enough;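 note: controls were the assay level and a saturating level of protein; the project sought stronger binding though the title names inhibitors; some compounds called inactive have numbers as strong as hits; positive values seem to mean higher polarization but the record does not say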
ALR inh – human ALR oxidase inhibition via reduced H2O2; P55789; purified ALR, DTT oxidation, H2O2 HRP-luminol luminescence; inhibition, % (no concentration beside the values); 3.8% of 290,000 active;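 active = mean and each replicate at 75% or more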;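 note: stock transfer was 7.5 nL into about 7.5 µL; 0% = neutral wells and 100% = wells with inactivated enzyme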
Target sequence (P55789 whole entry, looked up): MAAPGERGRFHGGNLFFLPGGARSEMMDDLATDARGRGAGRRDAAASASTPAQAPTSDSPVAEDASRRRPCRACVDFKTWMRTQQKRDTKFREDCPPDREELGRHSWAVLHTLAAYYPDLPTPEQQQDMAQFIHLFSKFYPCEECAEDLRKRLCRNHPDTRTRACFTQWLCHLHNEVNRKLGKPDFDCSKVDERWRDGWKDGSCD
E coli growth – blocks Escherichia coli growth. OD600, 23 h; stronger effect = lower value. AID 1053175. OD600 absorbance (concentration not given with the values). 0.21% of 330,000 active;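 active = OD600 absorbance below the run mean of sample wells minus 3.6 SD, in any replicate, cut at about 0.56 in these data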;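 note: stock transfer was 300 nL into about 60 µL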
UCH37 inh – blocks the human deubiquitinase UCH37. Q9Y5K5. purified proteasome/UCH37, Ub-AMC cleavage fluorescence. inhibition, % (concentration not given with the values). 0.33% of 330,000 active;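 active = mean of two replicates above 20%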;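 note: 0% = compound-free wells with enzyme and 100% = wells lacking proteasome; stock transfer was 100 nL into about 20 µL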
Target sequence (Q9Y5K5 whole entry, looked up): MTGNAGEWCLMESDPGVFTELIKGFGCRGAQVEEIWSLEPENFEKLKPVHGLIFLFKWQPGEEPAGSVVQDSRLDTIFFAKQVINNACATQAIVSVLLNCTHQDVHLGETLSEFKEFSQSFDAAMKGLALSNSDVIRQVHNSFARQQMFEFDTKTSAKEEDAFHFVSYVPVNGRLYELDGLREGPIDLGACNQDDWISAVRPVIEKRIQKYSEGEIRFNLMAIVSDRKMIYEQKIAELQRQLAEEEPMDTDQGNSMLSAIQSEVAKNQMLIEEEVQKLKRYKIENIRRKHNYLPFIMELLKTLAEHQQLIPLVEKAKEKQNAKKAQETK
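Signal – fluorescence, ex 355 nm, em 460 nm · System – Proteasome-bound UCH37 · Input – 0.15 nM proteasome as dispensed · Timing – 30 min preincubation with enzyme, 25 min cleavage at room temperature · Read-out basis – percent inhibition of cleavage signal versus uninhibited and no-proteasome wells · Medium – Tris-HCl pH 7.4 with ATP-MgCl2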
LANA-H2B inh – blocks KSHV LANA binding to histone H2A/H2B | AID 2629 | inhibition, % (no concentration beside the values) | cell-free LANA-H2A/H2B peptide, fluorescence polarization | Q9QR71 | 0.6% of 320,000 active; in the data active = inhibition mostly above about 10%, no sharp cut-off; inactive = mostly below about 6.7%;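 note: stock transfer was 7.5 nL into about 10 µL; 0% = median of vehicle wells and 100% = median of positive control wells; one replicate is shown; the record names a cut of 25% in any replicate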
FGF22 binding – FGF22 (human) thermal shift binding; recombinant FGF22 thermal shift, SYPRO orange fluorescence; percent of sucrose octasulfate shift, DMSO zero; Q9HCT0; calls only at 9.99 µM; 1.5% of 340,000 active; AID 651658;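 active = melting point raised past a set limit in the mean and every replicate; three in four hits are not shown here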
Active calls of the source: *; i = inactive; . = no result given; + = active, no number. A portion of the library; count on the stated rates, not on these rows.

SMILES	B2AR ag	HNF4A DNA FP	ALR inh	E coli growth	UCH37 inh	LANA-H2B inh	FGF22 binding
CCC/C(O)=C1\C(=O)CCCC1=NCCc1ccc(OCC)c(OCC)c1	6.1	1.2	-6.0	0.705	4.3	1.8	.
C=CCNC(=S)N1CCC(C(=O)c2ccc(OC)cc2)CC1	-4.9	-0.7	0.3	0.701	4.5	2.6	i
Cc1ccc(-n2nc3c(c2NC(=O)c2ccco2)CS(=O)(=O)C3)cc1C	-8.6	0.0	1.4	0.71	4.4	2.1	i
O=C(O)C1C2C=CC(C2)C1C(=O)OCC1CCCO1 (stereo unspecified)	0.3	0.4	0.8	0.713	0.8	2.0	.
Cc1ccc(OCc2ccc(C(=O)NN)o2)c([N+](=O)[O-])c1	2.5	-2.9	-6.7	0.682	5.9	1.7	i
CCSc1nc2sc3c(c2c(=O)[nH]1)CC(C)(CC)OC3 (stereo unspecified)	8.7	-1.2	3.1	0.727	3.2	1.5	.
Cc1ccc(C)c(S(=O)(=O)Nc2ccc3scnc3c2)c1	-7.0	-2.8	.	0.701	5.6	14.2	.
CN(C)CCCN(C(=O)c1ccc([N+](=O)[O-])s1)c1nc2cc3c(cc2s1)OCCO3	42.2*	-2.3	-22.6	0.615	56.0*	0.9	i
COc1ccc(C(=O)NC(=S)Nc2ccccc2N2CCN(S(C)(=O)=O)CC2)cc1OC	3.6	-1.8	0.8	0.663	6.2	4.8	i
CCCCCC/C(C=O)=C\c1ccccc1	5.4	11.1	15.0	0.652	1.7	0.0	i
COc1cccc(CN2CC(C(=O)NCc3ccc(Cl)s3)CCC2=O)c1 (stereo unspecified)	-2.8	-3.3	.	0.673	2.8	.	i
O=C(O)/C=C/C(=O)N1CCN(S(=O)(=O)c2cccc(C(F)(F)F)c2)CC1	-1.9	-7.4	-7.6	0.714	3.1	2.8	.

With a hit mark in B2AR ag, among the entries above:
SMILES	B2AR ag	HNF4A DNA FP	ALR inh	E coli growth	UCH37 inh	LANA-H2B inh	FGF22 binding
CN(C)CCCN(C(=O)c1ccc([N+](=O)[O-])s1)c1nc2cc3c(cc2s1)OCCO3	42.2*	-2.3	-22.6	0.615	56.0*	0.9	i

New compounds follow.
SMILES	B2AR ag	HNF4A DNA FP	ALR inh	E coli growth	UCH37 inh	LANA-H2B inh	FGF22 binding
COCCCN(C(=O)Nc1ccccc1)C(C)c1ccncc1 (stereo unspecified)	-0.9	2.4	.	0.688	4.6	2.3	i
CCOC(=O)C1CCCN(C2CC(=O)N(c3ccc(N4C(=O)CC(N5CCCC(C(=O)OCC)C5)C4=O)cc3)C2=O)C1 (stereo unspecified)	-3.2	1.6	-4.1	0.732	0.1	-4.5	.
CCOC(=O)Nc1cccc(Cl)c1C	1.7	6.2	2.4	0.675	2.9	-0.1	.
CN(c1ccccc1)c1nc(N)c([N+](=O)[O-])c(NCc2ccco2)n1	-1.5	4.1	-4.0	0.719	5.8	8.5	.
COc1ccccc1OCCNC(=O)CCNC(=O)c1ccccc1Cl	-3.7	2.7	-0.6	0.682	1.6	13.1	i
O=C(NCCC(c1ccccc1)c1ccco1)c1cccs1 (stereo unspecified)	-12.0	0.5	-6.7	0.677	2.9	-8.2	i
Cc1ccc(NC(=O)C2CCCN2S(=O)(=O)c2ccc3c(c2)n(C)c(=O)c(=O)n3C)cc1C (stereo unspecified)	-1.8	-0.9	-5.4	0.677	2.7	3.2	i
CCN(c1ccccc1)S(=O)(=O)c1ccc(C(=O)Nc2c(C)n(C)n(-c3ccccc3)c2=O)cc1	11.2	-2.8	0.7	0.707	3.8	-0.6	i
O=C1Nc2ccc(S(=O)(=O)N3CCCC3)c3ccc(S(=O)(=O)N4CCCC4)c1c23	0.6	-2.8	-14.5	0.684	3.2	-1.2	.
NC(=O)[C@@H]1CCCNc2c(F)cc([N+](=O)[O-])cc2C(=O)N[C@@H](CCC(=O)O)C(=O)N[C@@H](CO)C(=O)N1	0.4	2.9	-4.6	.	5.5	-0.5	i
CC1=C(C(=O)OCCC(C)C)C(c2ccc3c(c2)OCO3)NC(=O)N1 (stereo unspecified)	-9.6	-4.6	-0.6	0.685	5.5	-2.6	i
N#CCC(=O)N/N=C/c1c(-c2ccccc2)n(-c2ccccc2)c2ccccc12	24.3	1.0	2.2	.	.	1.3	i
C/C(=N\OC(=O)c1ccc(Cl)cc1)c1nccs1	0.5	0.1	0.8	.	.	-1.7	.
CCOC(=O)CSc1nc(-c2ccc3c(c2)OCO3)ccc1C#N	4.5	-2.8	-9.5	0.766	-54.7	0.8	.
Cc1ccc(C(=O)N2CCN(c3ccc(NC(=O)CSc4ccc(Cl)cc4)cc3)CC2)cc1	2.0	1.8	-3.3	0.668	-0.4	-0.7	.
CCOc1ccc(NS(=O)(=O)c2ccc3[nH]cc(C(=O)NCC4CCCO4)c(=O)c3c2)cc1 (stereo unspecified)	-2.1	-0.3	25.6	0.71	3.2	-5.6	.
CC1CCCN(Cc2c(C(=O)N3CCc4ccccc4C3)nc3ccc(Cl)cn23)C1 (stereo unspecified)	-16.2	2.9	1.7	0.679	-0.2	-0.3	i
Cc1c(C=O)c(=O)n(-c2ccccc2)n1-c1ccccc1	2.0	-4.1	-0.3	0.677	4.2	1.4	.
Cc1cc(C)nc(NC(=O)Cc2ccc(Cl)cc2)c1	-8.4	0.4	-4.5	0.615	-1.5	2.2	i
CCn1cc(CN2CCC(n3nccc3NC(=O)CCCc3ccccc3)CC2)cn1	-1.0	-0.1	-5.4	0.676	1.1	2.0	i
O=C1NC(=O)/C(=C\c2ccc(N3CCOCC3)o2)N1	-5.3	24.6	11.9	0.673	11.8	8.1	i
Cn1c(=Nc2ccccc2)sc2ccccc21	-8.4	1.3	-3.1	0.622	1.9	2.4	i
O=C(Nc1ccccc1Cl)c1ccc(S(=O)(=O)N2CCOCC2)cc1	1.9	1.8	-4.1	0.731	5.4	-5.1	i
COc1ccc(CC(=O)Nc2nnc(C)s2)cc1	18.3	5.9	-2.8	0.731	1.4	-4.7	.
CN(C)S(=O)(=O)c1ccc2c(c1)nc(CCC(=O)O)n2C	6.0	3.4	.	0.668	1.6	.	.
Cc1cc(Br)ccc1NC(=O)CN(C)C(=O)Cn1c(=O)cnc2ccccc21	-5.0	6.1	-1.7	0.674	1.8	-1.3	i
CCN1CCN(C(c2ccccc2)c2nnnn2CCc2ccc(OC)c(OC)c2)CC1 (stereo unspecified)	4.5	-3.2	-8.8	0.723	2.3	15.0*	.
CNC(=O)/C(C#N)=C\c1cc(C)n(-c2ccc(N3CCOCC3)cc2)c1C	4.1	-0.9	-14.0	0.691	-10.2	7.1	i
CCSc1nnc(NC(=O)c2cc(C)nc3ccccc23)s1	15.6	-3.7	-13.0	0.661	7.7	-2.6	.
CC(=O)Nc1ccc(NC(=O)C(C)Oc2ccccc2F)cc1 (stereo unspecified)	9.1	-0.1	-26.6	0.627	1.1	5.2	.
CCOC(=O)c1[nH]c(C)c(C(=O)NCc2ccccn2)c1C	-1.0	1.3	-3.1	0.733	0.4	6.9	.
CC[C@H](C)[C@@H](CN[C@H](C)CNC)NCCC(c1ccccc1)c1ccccc1	28.3	-0.7	.	.	0.2	-5.5	i
O=C(NNC(=S)NC(=O)c1cccnc1)c1ccc(F)cc1	-2.3	5.9	97.6*	0.533	6.7	-2.2	i
COc1cccc(-c2nc(CS(=O)(=O)CC(=O)Nc3cc(OC)ccc3OC)c(C)o2)c1	3.5	3.7	-11.5	0.661	1.7	0.4	i
CCOc1ccc(C(=O)NC(=S)NC2CCCC2)cc1[N+](=O)[O-]	-11.8	-0.9	19.8	0.714	-1.1	1.3	i
Cc1ccc(C)c(S(=O)(=O)N2CCCN(C)CC2)c1	4.8	3.0	.	0.703	4.6	-5.0	i
CCOc1ccc(S(=O)(=O)NCC(=O)N(C)Cc2cccnc2)cc1	-1.7	-0.7	-13.3	0.638	1.0	2.5	.
CN(C)C(=O)c1noc2cc([N+](=O)[O-])ccc12	13.7	0.2	-15.7	0.667	1.8	1.9	.
COCCCNC(=O)C(=O)C1C(=O)Nc2ccccc21 (stereo unspecified)	-7.8	3.0	33.3	0.689	1.0	3.7	i
COc1cccc(N2CCN(C(=O)CSc3ccc(F)cc3)CC2)c1	0.2	0.5	.	0.68	2.0	-5.2	i
c1ccc(C[C@H]2CNCCN2CCCCC2CCCCC2)cc1	10.5	-1.0	-0.9	.	35.9*	-4.6	i
COc1cc(/C=C/c2nc3ccccc3c(=O)[nH]2)ccc1OC(F)F	-4.0	-2.6	.	0.657	-73.6	-3.5	i
Cc1nnc(NC(=O)c2cc3n(n2)C(C(F)(F)F)CC(C2CC2)N3)s1 (stereo unspecified)	1.6	-0.5	-4.3	0.772	-1.4	-2.8	.
Cn1c(CO)cnc1SCc1ccc(F)cc1	5.9	0.2	-16.9	0.657	3.6	2.9	i
CCCC(=O)Nc1ccc(NC(=S)NC(=O)c2ccccc2[N+](=O)[O-])cc1	-5.7	3.1	.	0.66	0.8	-3.1	i
O=C(NCCOc1ccccc1Cl)C(=O)Nc1ccccc1	7.4	-2.3	-27.2	0.72	4.1	2.8	i
CCN(CC)C(=O)c1cc2c(=O)n3cccc(C)c3nc2n1C	-7.1	-0.9	-5.7	0.702	-262.7	2.9	.
CC(C)C[C@H](NC(=O)N1CCn2c1nc1ccccc12)C(=O)NCc1ccc2c(c1)OCO2	-27.4	2.3	-8.1	0.658	3.8	2.5	i

Next section, overlapping the part above by 2 compounds.
SMILES	B2AR ag	HNF4A DNA FP	ALR inh	E coli growth	UCH37 inh	LANA-H2B inh	FGF22 binding
CCN(CC)C(=O)c1cc2c(=O)n3cccc(C)c3nc2n1C	-7.1	-0.9	-5.7	0.702	-262.7	2.9	.
CC(C)C[C@H](NC(=O)N1CCn2c1nc1ccccc12)C(=O)NCc1ccc2c(c1)OCO2	-27.4	2.3	-8.1	0.658	3.8	2.5	i
O=c1c2nccnc2[nH]c(=S)n1Cc1ccccc1	1.9	-2.0	16.5	0.684	3.4	4.4	i
CCc1ccc(C(=O)COC(=O)c2ccc(Cl)nc2)cc1	-1.6	2.9	4.4	0.663	-4.5	4.1	i
NC(=S)N/N=C/c1ccccc1[N+](=O)[O-]	2.8	4.3	-2.7	.	.	-0.1	.
CC1CCc2onc(C(=O)NCc3ccco3)c2C1 (stereo unspecified)	-7.3	-4.8	0.9	0.7	-0.1	+	i
CCOCCCn1c(SCc2nc3ccccc3s2)nc2ccccc2c1=O	-1.6	0.9	1.0	0.695	-2.8	-3.8	i
COc1ccc(NC(=O)CS(=O)(=O)c2cn(CC(=O)N3CCCC3)c3ccccc23)c(OC)c1	0.2	-0.1	-15.1	0.719	-1.2	-7.9	i
Fc1ccc(C2NC(=S)NC3=C2N2CCC3CC2)cc1 (stereo unspecified)	-4.4	2.3	1.8	0.698	0.2	-0.8	i
CSc1ncccc1C(=O)OCC(=O)c1cccs1	4.6	2.8	13.9	0.712	4.1	5.5	i
CCOP(=O)(OCC)C(Nc1ccccn1)c1ccccc1 (stereo unspecified)	1.8	1.6	0.8	0.647	3.4	3.0	.
O=C(CSc1ncn[nH]1)NCCCc1ccccc1	2.7	0.8	0.9	0.784	1.0	6.1	.
CN(C)c1ccc(/C=C2\SC(=S)N(Nc3ncc(C(F)(F)F)cc3Cl)C2=O)cc1	-6.2	165.7	-7.2	0.77	13.1	-32.9	.
CCNC(=S)NNC(=O)CCc1nc2cc(Cl)ccc2n(Cc2ccccc2)c1=O	7.1	3.0	11.8	0.694	-27.9	-3.9	i
O=c1[nH]c(CN2CCN(c3ccc(O)cc3)CC2)nc2scc(-c3ccc(Cl)cc3)c12	10.6	3.5	30.3	0.664	1.8	1.7	i
CCSc1nnc(NC(=O)CSc2nc3c(c(=O)n2-c2ccccc2OC)SCC3)s1	-9.4	2.7	-18.8	0.735	3.9	-0.6	.
Cc1cc(C)n2ncc(C(=O)O)c2n1	1.7	-3.5	11.9	0.653	-9.7	5.1	i
